LANA-H2B inh: blockers of LANA interaction with H2A/H2B – biochemical, FP readout, HTS, primary screen; inhibition, % (concentration not given with the values); cell-free LANA-H2A/H2B peptide, fluorescence polarization; actives 0.6% (n = 320,000); Protein LANA1 (Human herpesvirus 8 type P (isolate GK18)), Q9QR71; in the data active = inhibition mostly above about 10%, no sharp cut-off; inactive = mostly below about 6.7%;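 also: stock transfer was 7.5 nL into about 10 µL; 0% = median of vehicle wells and 100% = median of positive control wells; one replicate is shown; the record names a cut of 25% in any replicate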
Calb FLC: C. albicans growth inhibition with fluconazole, primary screen, CaCi-2 strain, Alamar Blue fluorescence; C. albicans CaCi-2 (fluconazole-resistant clinical isolate) + fluconazole, 48 h; growth inhibition, % (no concentration beside the values); actives 0.57% (n = 300,000); AID 1979, 2009;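 active = most replicates above 75%; inconclusive = exactly half above 75%; inactive = most below 75%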;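 also: all wells also contain fluconazole at 8 µg/ml as a sub-toxic cotreatment; 0% = median of DMSO wells and 100% = median of geldanamycin control wells; wells of about 8 µL received 7.5 nL stock; the first replicate is given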
Beta apoptosis: inhibitors of cytokine-induced beta cell apoptosis, primary screen, luminescence. INS-1E cytokine-induced death, ATP luminescence, 48 h; percent of positive-control rescue, neutral wells zero. protection from apoptosis, % (concentration not given with the values). actives 0.8% (n = 300,000);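 active = all replicates at 75% or more, or half of them and the mean; inconclusive = half reach 75% but not the mean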;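 also: 0% = cytokine-treated negative control wells and 100% = positive control rescue; higher means more ATP so stronger rescue from cytokine killing; wells of about 40 µL received 100 nL stock; the first replicate is given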
AF4-AF9 inh: inhibitors of AF4 peptide binding to AF9, primary screen, biochemical, AlphaScreen, biotin-AF4 peptide, FLAG-AF9, single point; actives 0.47% (n = 350,000); inhibition, % at 10 µM;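 active = every replicate reaching a set inhibition limit, whatever the replicate mean, cut at about 25% in these data; inconclusive = mean inhibition reaches that limit but some replicates miss it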;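 also: 0% = plate neutral control median and 100% = total signal loss; the record names both 10 and 1 µM as test concentration; the first replicate is given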
Target sequence (P42568 whole entry, looked up): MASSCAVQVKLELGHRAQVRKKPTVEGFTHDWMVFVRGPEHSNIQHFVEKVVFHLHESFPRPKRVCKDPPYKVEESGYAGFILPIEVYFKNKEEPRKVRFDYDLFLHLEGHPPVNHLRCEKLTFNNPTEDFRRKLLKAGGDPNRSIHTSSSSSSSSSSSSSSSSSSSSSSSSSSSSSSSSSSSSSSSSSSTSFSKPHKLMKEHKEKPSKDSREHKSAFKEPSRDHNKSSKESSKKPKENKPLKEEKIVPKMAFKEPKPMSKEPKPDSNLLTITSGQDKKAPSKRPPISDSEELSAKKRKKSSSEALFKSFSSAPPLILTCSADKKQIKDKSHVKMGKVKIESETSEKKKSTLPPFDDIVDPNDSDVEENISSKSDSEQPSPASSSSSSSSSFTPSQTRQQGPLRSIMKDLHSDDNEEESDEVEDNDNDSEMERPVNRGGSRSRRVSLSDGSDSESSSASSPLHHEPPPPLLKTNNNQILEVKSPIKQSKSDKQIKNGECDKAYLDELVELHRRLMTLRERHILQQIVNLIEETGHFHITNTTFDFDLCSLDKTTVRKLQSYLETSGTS
A1 inh: caspase 3/7 activation in MEF A1-2A-BIM cells, primary screen, A1 inhibitor project, cell-based, luminescence, HTS. Caspase-Glo 3/7 luminescence, 3 h; percent of clofoctol response, vehicle zero. caspase activation, % (test concentration not listed). actives 0.066% (n = 330,000);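 active = over half of replicate activation scores above 10%, or exactly half above 10 with the replicate mean above 10; inconclusive = replicate mean below 10 yet half the replicates above 10; inactive = over half of replicates below 10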;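 also: wells of about 30 µL received 50 nL stock; many hits fall short of the cut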
RanGTP-Imp inh: inhibitors of RanGTP-importin-beta interaction, primary screen, biochemical, FRET, CFP-Ran, YFP-importin-beta, homogeneous. Ran GTPase (GTP-bound) - importin-beta complex. cell-free CFP-Ran/YFP-importin-beta FRET ratio. inhibition, % (concentration not given with the values). actives 1.1% (n = 300,000). AID 2216, 2009;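 active = most replicates above 15%; inconclusive = exactly half above 15%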;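 also: 0% = DMSO wells and 100% = Ran loaded with GDP instead of GTP; wells of about 40 µL received 100 nL stock; the first replicate is given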
Vif TR-FRET: inhibitors of Vif binding to APOBEC3G peptide, primary screen, biochemical, TR-FRET, GST-Vif 1-94, biotin-A3G peptide, dose response retest (AID 1117319) | Virion infectivity factor (Human immunodeficiency virus type 1 group M subtype B (isolate … | TR-FRET GST-Vif / biotin-A3G peptide binding; higher % means a stronger effect; test concentration not given here; strong numbers were not always called active | actives 0.57% (n = 260,000) | inhibition, %; hits with a dose series show IC50 in µM;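 active = above the screen mean plus three standard deviations and confirmed in dose response; inconclusive = results disagree or hit not tested in dose response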;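 also: Vif residues 1-94 fused to GST binding biotinylated APOBEC3G peptide 110-148; 0% = full assay without inhibitor and 100% = GST in place of GST-Vif; retest series ran down from 100 µM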
T cruzi repl: inhibitors of intracellular T. cruzi growth, primary screen, luminescence, NIH3T3 host cells | inhibition, % (test concentration not listed) | T. cruzi beta-gal in NIH3T3, 90 h | actives 1.4% (n = 300,000);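 active = mean inhibition across valid replicates above about 55%, limit read from the data; inconclusive = mean below that limit but half or more replicates reach it; inactive = mean below it, under half of replicates reach it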;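 also: signal also drops with host cell toxicity which is not excluded here; 0% = plate median of DMSO wells and 100% = zero luminescence signal; higher percent means less beta-gal luminescence so fewer parasites; stock transfer was 50 nL into about 50 µL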
* marks the source's active call; other numbers are inactive results; ? = inconclusive; / = not tested or not shown.

SMILES	LANA-H2B inh	Calb FLC	Beta apoptosis	AF4-AF9 inh	A1 inh	RanGTP-Imp inh	Vif TR-FRET	T cruzi repl
Cc1cc(C(F)F)n2nc(C(=O)Nc3sc4c(c3C#N)CCC4)nc2n1	-1.2	52	6	4.3	0.0	7.3	3%	-8
CC1CCCN(C(=O)c2ccc3c(c2)OCO3)C1 (stereo not given)	0.0	-6	/	1.7	0.0	6.8	3%	-10
CC1CCCC(C)N1c1nnc(N)s1 (stereo not given)	3.7	-4	-2	-0.3	1.8	-0.3	/	0
Cc1cccc(NC(=O)CN2CCN(C(=O)CNC(=O)Cc3cccc4ccccc34)CC2)c1C	/	/	1	-3.5	-0.2	/	-19%	/
CCOc1cc(C(=S)N2CCN(C)CC2)ccc1OCC(=O)N1CCCC1	2.4	0	-1	-0.5	0.9	-1.1	0%	-4
Cc1nn(CC(=O)OCCOc2ccc(Br)cc2)c(C)c1[N+](=O)[O-]	-1.2	-1	0	-1.4	0.0	-1.0	/	-13
COc1ccc(S(=O)(=O)N2CCN(Cc3ccccc3[N+](=O)[O-])CC2)cc1	2.1	7	1	/	-0.4	0.0	/	5
Cc1ccc(S(=O)(=O)Nc2ccc(NC(=O)CN3CCCCC3)cc2)cc1	-6.0	/	-1	/	0.2	-0.6	4%	-2
COCCC1CCCCN1C(=O)c1ccc2nc(Cc3ccccc3F)oc2c1 (stereo not given)	-3.3	11	4	-0.6	-3.4	?	/	5
COc1ccc(CNC(=O)COc2ccc(S(=O)(=O)NC(C)C)cc2)cc1	0.7	9	0	/	0.3	-0.1	19%	1
CCCCC(=O)Nc1ccc(N2CCCC2)cc1	-4.2	-19	1	/	0.1	-5.1	?	22
CCCCC(=O)Nc1ccc(C(=O)NCCCn2ccnc2)cc1	-3.7	-3	32	/	0.0	?	5%	-13
O=C(Cc1c(F)cccc1Cl)Nc1nc2ccccc2s1	-1.3	-49	3	1.3	-0.7	-2.5	5%	13
CC(C)NC(=O)NC(=O)COc1ncnc2sccc12	1.6	3	-8	/	0.4	7.7	-1%	-9
Fc1ccc2nc(N3CCCCC3)sc2c1	4.1	-7	7	/	-6.2	-1.8	21%	-2

Single records, from the list above. Order of values: LANA-H2B inh | Calb FLC | Beta apoptosis | AF4-AF9 inh | A1 inh | RanGTP-Imp inh | Vif TR-FRET | T cruzi repl
Shown for O=C(Cc1c(F)cccc1Cl)Nc1nc2ccccc2s1 = -1.3 | -49 | 3 | 1.3 | -0.7 | -2.5 | 5% | 13
Shown for CCCCC(=O)Nc1ccc(C(=O)NCCCn2ccnc2)cc1 = -3.7 | -3 | 32 | / | 0.0 | ? | 5% | -13
Shown for Cc1ccc(S(=O)(=O)Nc2ccc(NC(=O)CN3CCCCC3)cc2)cc1 = -6.0 | / | -1 | / | 0.2 | -0.6 | 4% | -2
Shown for CC1CCCC(C)N1c1nnc(N)s1 (stereo not given) = 3.7 | -4 | -2 | -0.3 | 1.8 | -0.3 | / | 0

Look-ups from above:
COc1ccc(S(=O)(=O)N2CCN(Cc3ccccc3[N+](=O)[O-])CC2)cc1 in RanGTP-Imp inh: 0.0
CCCCC(=O)Nc1ccc(C(=O)NCCCn2ccnc2)cc1 in T cruzi repl: -13

Carrying on:
SMILES	LANA-H2B inh	Calb FLC	Beta apoptosis	AF4-AF9 inh	A1 inh	RanGTP-Imp inh	Vif TR-FRET	T cruzi repl
O=C1CCCc2ccccc2N1Cc1ccc(Cl)cc1Cl	1.6	-10	-1	/	0.4	1.7	1%	-1
COc1cc(NC(=S)NCCC(c2ccccc2)c2ccccc2)c(OC)cc1Cl	-6.4	3	57	/	-0.6	?	/	15
O=C(O)C1CCCN(C(=O)NCc2ccccc2)C1 (stereo not given)	-1.3	-13	-8	/	0.2	-3.6	0%	-3
Cc1cc(C(=O)Nc2cccc(O)c2)c(C)o1	-2.7	2	-12	/	-0.4	5.5	11%	-17
Cc1nc(NS(=O)(=O)c2ccc(Cl)s2)c2c3c(sc2n1)CCCC3	2.6	-1	8	3.9	-0.6	-4.4	22%	-2
CCCCCCCC[n+]1cccc(C(=O)N(CC)CC)c1	0.8	-10	-8	-1.5	1.2	-0.2	/	-5
Cc1ccc(C(=O)OCC(=O)NC(C)c2ccccc2)s1 (stereo not given)	-0.6	/	-8	1.9	0.6	/	-3%	/
COc1ccc(C)cc1N(C(=O)CNC(=O)c1ccco1)C(C(=O)NC1CCCC1)c1cccnc1 (stereo not given)	11	-9	-5	/	-0.2	0.5	9%	-2
COc1cc(CNn2cnnc2)ccc1OCC(=O)NC(C)(C)C	0.6	-9	-2	/	0.6	2.9	6%	-8
COc1ccc(C/C(N)=N/OC(=O)CCc2ccccc2)cc1	0.2	-6	-10	-0.6	-0.6	2.4	-3%	5
Cc1ccc(S(=O)(=O)NCCC(=O)N2CCC(Cc3ccccc3)CC2)cc1	2.7	-1	-4	0.0	0.7	/	5%	7
O=S(=O)(c1ccc(F)cc1)c1nc(-c2ccco2)oc1Nc1ccc(F)cc1	4.7	2	-1	/	-0.4	3.1	/	8
O=C1C2=C(CCCC2)C(=O)N1c1cccc(OCCBr)c1	-4.0	-1	5	3.7	0.3	1.9	?	-22
CCOC(=O)c1ccccc1NC(=O)c1cccc(F)c1	-1.8	-1	2	/	0.7	3.3	26%	5
COc1ccc(NC(=O)Nc2ccc(C(=O)N3CCOCC3)cc2)cc1	0.1	-3	-1	/	-0.5	6.9	20%	7
COCCN(C(=S)Nc1ccc(C(C)C)cc1)C(C)c1cccs1 (stereo not given)	-2.5	-9	0	-22	1.4	-4.5	5%	3
Cc1cc(CNC(=O)c2ccc3c(c2)OCO3)c2ccccc2n1	0.1	-10	3	3.3	2.6	?	/	-24
CCCCN(C(=O)c1ccc(S(=O)(=O)N2CCOCC2)cc1)C1CCS(=O)(=O)C1 (stereo not given)	3.6	4	-1	-1.6	-0.4	-4.8	7%	-4
CCOC(=O)c1[nH]c(C)c(C(=O)N2CCN(c3cccc(Cl)c3)CC2)c1C	-0.5	18	-5	15	-0.4	-9.3	3%	9
CCC(C(=O)NC1CCCCCC1)c1ccccc1 (stereo not given)	-2.1	-7	1	-4.4	1.5	4.4	/	0
CC(Sc1nc(N(C)C)nc(N2CCOCC2)n1)C(=O)Nc1ccccc1 (stereo not given)	-1.4	0	/	/	-1.2	-1.3	0%	5
CCC(C)(C)NC(=O)CN(CC1CCCO1)C(=O)CNS(=O)(=O)c1ccccc1 (stereo not given)	-3.6	11	4	0.6	0.9	6.3	-5%	6
COc1cccc(OCCn2cc(C(=O)c3ccco3)c3ccccc32)c1	-2.3	31	1	/	1.0	3.6	5%	29
CCc1noc(C)c1C(=O)Nc1ccccc1N1CCOCC1	3.4	13	-4	-7.5	-0.1	3.4	2%	-2
C=CCSc1nc2c(C(=O)OCC)nnn2c2ccccc12	2.4	0	9	-2.6	?	2.5	/	-2
Cc1cccc(Nc2nc(-c3ccc4c(c3)OCCO4)cs2)c1	2.9	-22	2	/	-0.2	3.2	2%	-16
Cc1c(Cl)c([N+](=O)[O-])nn1CCCC(=O)Nc1cc(Cl)ccc1Cl	-1.6	1	5	/	0.3	-1.6	/	12
Cc1ccc(-c2csc3ncnc(SCC(=O)NCc4ccc5c(c4)OCO5)c23)cc1	7.1	10	/	/	0.0	-1.5	9%	24
COC(=O)c1nc(N)sc1C	-11	-23	-2	/	0.7	0.0	-6%	-5
Cc1ccn2c(=O)nc(SCC(=O)NC3CCCCC3)nc2c1	3.2	11	/	-0.5	-0.5	3.3	/	-3
CC(C(=O)Nc1nc2ccccc2[nH]1)N1C(=O)C2CC=CCC2C1=O (stereo not given)	-0.7	14	7	/	0.2	-3.3	12%	-10
COc1ccc(CC(=O)Nc2ccc(N3CCOCC3)cc2)cc1OC	1.0	-10	-7	7.8	-0.1	1.4	/	/
CCn1cc(CN2CCCC(CNS(=O)(=O)Cc3ccccc3)C2)cn1 (stereo not given)	6.0	2	0	-0.2	-0.3	-2.0	/	46
COc1ccccc1N(CC(=O)Nc1ccccc1C(=O)N1CCCC1)S(C)(=O)=O	/	-7	/	51*	/	-2.8	/	-4
CCOC(=O)NC(=O)/C(C#N)=N/Nc1c(F)cccc1F	/	-6	-11	/	-0.5	3.8	4%	-1
COc1ccc(CC(=O)NCCS(=O)(=O)N2CCN(c3ccccc3OC)CC2)cc1	-14	1	5	-21	-0.8	-3.1	-4%	0
O=C(CSc1nnc(-c2cccnc2)n1Cc1ccco1)c1ccc(Cl)cc1	0.6	9	-2	/	0.4	3.6	9%	1
COc1cc2c(cc1OC)C(COc1ccc([N+](=O)[O-])cc1)NCC2 (stereo not given)	2.3	-3	9	5.9	0.3	5.9	/	9
Cc1ccc(S(=O)(=O)N/N=C/c2cnn(C)c2C)cc1	-2.4	-3	-8	/	-3.1	0.0	24%	/
COc1ccc(CCNC(=O)c2nn(C)cc2Cl)cc1	-5.0	-3	-7	-0.4	0.3	0.8	6%	-5
Cc1ccc(NC(=O)COCC(=O)Nc2ccc(C)cc2)cc1	-0.2	2	-2	-3.8	-0.1	-1.1	/	-4
O=[N+]([O-])c1cn(Cc2ccc(Cl)cc2)cn1	-5.6	4	1	/	0.3	-3.1	-2%	-11
COc1ccc(S(=O)(=O)N(C)CC(=O)Nc2ccc3c(c2)OCO3)cc1OC	7.6	-6	-2	/	1.0	-0.1	11%	-4
O=C(NCCN1CCCCC1)/C(=N\O)c1ccccc1	-1.8	/	-4	/	-0.2	/	28%	/
CCCCCCc1ccc(OCC(=O)O)cc1OCC(=O)O	3.6	1	0	/	1.5	9.1	7%	-11
CC(C)(C)C(=O)NNC(=O)c1cc2sccc2s1	1.0	-1	-3	-5.1	-0.1	-3.3	/	3
COc1ccc(N2CCN(C(=O)[C@@H](NC(=O)c3ccccc3Cl)C(C)C)CC2)cc1	2.9	-3	-5	6.9	-0.5	-0.8	-6%	9
COc1ccc(CNC(=O)CC2C[C@H](C(=O)N(C(C)C)C(C)C)[C@@]3(C)c4[nH]c5ccccc5c4CCN3C2=O)cc1OC (stereo not given in full)	/	/	-5	2.8	1.6	/	-9%	/
COc1cc(/C=N/NC(=O)C23CC4CC(CC(C4)C2)C3)cc(Br)c1O	-3.5	31	-3	6.7	0.1	-0.1	-4%	-14
O=C(NCCCN1CCCC1)c1ccc(CSCc2cccc(Cl)c2)o1	0.2	-5	-2	13	-0.3	2.2	-1%	53
COc1ccc(C(=O)Nc2cc([N+](=O)[O-])ccc2N2CCN(C)CC2)cc1	9.5	-5	2	/	0.4	-6.1	-1%	4
O=C(NNC(=O)c1ccc(NC(=O)c2ccccc2)cc1)c1ccccc1	-0.4	-5	-8	-0.1	-0.9	-4.8	-6%	3

High-throughput results (PubChem BioAssay)
